ClpP mod – qHTS Assay for Activators of ClpP. ATP-dependent Clp protease proteolytic subunit (Bacillus subtilis (strain 168)), P80244. purified B. subtilis ClpP, FRET peptide cleavage, 20 min. Potency, µM (series often up to 57.5 µM), for the others: at the highest dose activity change, negative = active. 340,000 tested, 1.9% active; active = well fitted falling curve with a large enough effect; inconclusive = small, poorly fitted or top-dose-only effect; inactive = no such curve, though single readings can be large or run the other way; note: potency is the fitted concentration of half-maximal effect; the source files actives as falling curves though it sought activators and does not explain the sign; nearly all actives have a fitted effect of over 65% in size; many hits overshoot -100%
Target sequence (P80244 whole entry, looked up): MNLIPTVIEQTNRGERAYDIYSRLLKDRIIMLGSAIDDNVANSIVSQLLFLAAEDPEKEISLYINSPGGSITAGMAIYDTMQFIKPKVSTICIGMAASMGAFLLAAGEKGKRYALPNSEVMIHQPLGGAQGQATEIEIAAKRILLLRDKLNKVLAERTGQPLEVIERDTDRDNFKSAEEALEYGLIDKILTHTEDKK
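FRET quenching reversal measured ClpP activation: 10 microg/mL B. subtilis ClpP at pH 8 with the FRET-FV decapeptide, read at 430 nm after 320 nm excitation. The 20-min minus 0-min signal was scaled between DMSO/no-enzyme wells and ADEP (5.8 microM final).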
TRPV1 potentiator – potentiators of human vanilloid receptor 1 (TRPV1); potentiation, % at 8.33 µM; Q8NER1; TRPV1-expressing cells, Fluo-8 calcium influx, capsaicin EC20 potentiation; host cell line not named in the record; control for the full effect not named in the record; 320,000 tested, 0.02% active; active means potentiation above 80%; inconclusive means 30% to 80%; inactive means below 30%; note: 0% is about no effect
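TRPV1-expressing cells were cultured overnight at 35.5C and loaded with Fluo-8 calcium dye for 40 to 90 min at room temperature. After a 10 s baseline, compound was added and calcium influx was read kinetically for 3 min (ex 480/em 520 nm).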
Menin MLL FP FL – menin-MLL binding inhibition, fluorescein peptide | Fluorescence polarization, fluorescein-MLL peptide displacement from menin | FP activity change, % at 61.4 µM | 290,000 tested, under 10 active; inconclusive = falling polarisation curve, or a change in total fluorescence; inactive = total fluorescence flat and polarisation flat or rising; no compound was filed as active; the % refers to the polarisation; negative = inhibition;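 note: % of control where 0% means no effect; inhibitors lower the polarisation; unlabelled MLL peptide was the positive control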
gsp antagonist – antagonists of gsp mutant (McCune-Albright syndrome); gsp-mutant cells, cAMP HTRF, 30 min; control for the full effect not named in the record; Potency, µM (doses to about 76.9 µM), for inactives: top-dose activity change, negative = inhibition, usual class: inhibitors; 340,000 tested, 0.4% active; active = falling curve of any shape with a large fitted effect; inconclusive = falling curve, mostly with a smaller effect; inactive = flat or rising curve; cell line not stated here;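 note: intracellular cAMP measured with PDE inhibitor Ro 20-1724 present during compound exposure; potency is the fitted concentration of half-maximal effect; % is set by controls: 0 for no effect and ±100 for the full control effect; nearly all actives have a fitted effect of over 65% in size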
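HTRF cAMP read-out (cAMP-d2 plus anti-cAMP antibody-K in lysis buffer, 30 min RT). Before lysis, cells are exposed to compounds with […] for 30 min at 37C in DPBS containing Ca/Mg, BSA and Tween 20.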
TRPML1 blocker – blocks the human TRPML1 channel. Q9GZU1. activity change, negative = inhibition, % (no concentration beside the values). TRPML1-inducible cells, Ca2+ dye fluorescence, FDSS; stronger effect = lower value; inhibition of EC80 agonist-evoked calcium signal. 390,000 tested, 0.02% active; in the data active means activity change below about -50%; inconclusive means about -30% to -50%; inactive means above about -30%;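 note: stimulus is agonist 54-4 at its EC80 concentration; % is set by controls: 0 for no effect and ±100 for the full control effect; compound concentration not given in the record; the text of the record puts the active cut at -80%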
Target sequence (Q9GZU1 whole entry, looked up): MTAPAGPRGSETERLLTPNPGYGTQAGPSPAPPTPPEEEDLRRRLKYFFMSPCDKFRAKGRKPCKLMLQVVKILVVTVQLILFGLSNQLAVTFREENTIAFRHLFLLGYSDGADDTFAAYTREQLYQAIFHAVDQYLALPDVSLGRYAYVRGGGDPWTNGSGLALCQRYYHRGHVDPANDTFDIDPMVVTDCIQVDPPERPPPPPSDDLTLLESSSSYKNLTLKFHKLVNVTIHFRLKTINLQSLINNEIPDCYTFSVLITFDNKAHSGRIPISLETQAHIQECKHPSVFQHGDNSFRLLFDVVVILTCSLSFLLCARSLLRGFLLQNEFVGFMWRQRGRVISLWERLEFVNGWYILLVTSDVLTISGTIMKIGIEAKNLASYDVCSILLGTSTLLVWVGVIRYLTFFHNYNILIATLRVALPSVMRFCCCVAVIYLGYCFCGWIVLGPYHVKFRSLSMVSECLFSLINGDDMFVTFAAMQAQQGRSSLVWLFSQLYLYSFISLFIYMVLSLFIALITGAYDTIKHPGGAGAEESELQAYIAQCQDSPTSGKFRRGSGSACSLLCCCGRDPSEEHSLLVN
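Tet-induced TRPML1-DL cells loaded with Ca8 no-wash calcium dye were read kinetically on FDSS. Compound addition was followed by EC80 agonist 54-4 (4 uM final); inhibition was read over 110 s.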
gsp ag – activates gsp, the McCune-Albright syndrome mutation. gsp mutant cells, cAMP HTRF, 30 min; control for the full effect not named in the record. Potency, µM (highest dose often 76.9 µM), for inactives: at the top dose activation (cAMP increase), usual class: activators. 340,000 tested, 0.13% active; active = well fitted activation curve with a large enough effect; inconclusive = small, poorly fitted or top-dose-only effect, or another doubt; inactive = no such curve, though single readings can be large or run the other way; cell line not stated here;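 note: phosphodiesterase inhibitor Ro 20-1724 added with compounds to block cAMP breakdown; potency is the fitted concentration of half-maximal effect; nearly all actives have a fitted effect of over 60% in size; about a fifth of the inactives were tested at one dose only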
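Cells in DMEM/10% FBS with G418 were pretreated with compounds in DMSO plus […] (300 uM stock) for 30 min at 37C. cAMP was measured by HTRF (cAMP-d2 plus anti-cAMP antibody-K) after 30 min at room temperature.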
Sfp inh – blocks B. subtilis Sfp PPTase activity; Q9F4F7; Biochemical Sfp PPTase activity, qHTS; Potency, µM, inactives show max response, negative = inhibition, hits mostly inhibitors; 310,000 tested, 3.5% active; AID 1490; active = well fitted inhibition curve with a large enough effect; inconclusive = small, poorly fitted or top-dose-only effect, or another doubt; inactive = no such curve, though single readings can be large or run the other way;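 note: the enzyme is Sfp with the accession as filed and its product quenches rhodamine fluorescence; potency is the fitted concentration of half-maximal effect; 0% = enzyme reaction without inhibitor and -100% = no enzyme wells; top concentration of the series not given in the record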
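With Hepes-Na pH 7.6 buffer containing 10 mM MgCl2, Sfp (15 nM) modified BHQ-2-YbbR (12.5 uM) using rhodamine-CoA (5 uM). Two reads 30 minutes apart at 525/598 nm yielded each well's rate.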
Starred values were filed as active, the others as inactive; ? = inconclusive; / = not tested or not shown; & = joins results of further samples; [ ] = another dose, or the depositor's remark.

SMILES	ClpP mod	TRPV1 potentiator	Menin MLL FP FL	gsp antagonist	TRPML1 blocker	gsp ag	Sfp inh
CC(=O)Nc1ccc(CCCCc2ccc(NC(C)=O)cc2)cc1	/	/	/	6%	14	12%	/
O=C1NC(Cc2ccccc2)c2nc3ccc(F)cc3c(=O)n2-c2cc3ccccc3cc21 (stereo not given)	-29%	/	/	/	3	-7%	/
CC12CN3CCN(CC(C3)C1(O)CN1CCOCC1)C2 (stereo not given)	3.1%	25	4.6	7%	6	-1%	7%
Cc1cccc(NC(=O)c2cc(NC(=O)c3ccco3)ccc2Cl)n1	0.6%	13	0.8	10%	-1	0%	5%
Cc1ccc(S(=O)(=O)Nc2cccnc2Oc2ccc(Cl)cc2)cc1	-1.4%	20	1.4	1%	-22	-45%[inhibitor]	21%
O=C(CCCNC(=O)c1ccc(Cl)cc1)NCc1ccccc1F	/	-3	2.1	0%	8	23%	2%
Cc1nnc(NC(=O)CSc2nnc(Cc3ccccc3)n2-c2ccccc2)s1	2.8%	23	-0.9	0%	-10	63%	-1%
Cc1cccc[n+]1CC(=O)/C=C1\N(C)c2ccccc2C1(C)C	-0.2%	7	3.9	-10%	-9	-73%[inhibitor]	-2%
CC1=NN(c2ccc(N)cc2)C(=O)C1	-0.2%	-1	-0.9	-2%	-12	-9%	-19%
CCOC(=O)C1=C(C)Nc2ccccc2N=C1NC(=O)Cc1ccc(Br)cc1	?	2	-0.1	2%	-1	-1%	7%
O=c1[nH]c(C2CCN(S(=O)(=O)c3ccc4c(c3)OCCO4)CC2)nc2c1nnn2Cc1ccc(F)cc1	/	-14	14	-14%	-1	-6%	3%
COc1cc(Br)c(C2C(C#N)=C(N)Oc3n[nH]c(-c4cccnc4)c32)cc1OC (stereo not given)	/	2	-6.2	/	-11	-1%[15.4 µM]	-3%
COCCn1c(SCC(=O)Nc2cc(Cl)ccc2OC)nc2c(c1=O)SC(C)C2 (stereo not given)	-3.7%	17	4.1	-4%	-2	15%	-1%
O=C1CNC(=S)N1CCCn1ccnc1	0.8%	-6	-1.7	11%	4	?	6%
COc1ccc(CCC(=O)Nc2c(C)n(C)n(-c3ccccc3)c2=O)cc1	-0.6%	0	0.0	3%	3	-26%	12%
CN(C)/C(CN1CCN(C=O)CC1)=C1\N=C(c2ccccc2)OC1=O	-0.6%	/	-2.1	-19%	-2	-17%	-8%
N#CCC(=O)Nc1ccc(C(=O)OCC(=O)Nc2sc3c(c2C#N)CCCC3)cc1	-5.0%	3	/	-7%	-1	6%	/
CCc1ccc(-c2nc(CS(=O)CC(=O)O)c(C)o2)cc1 (stereo not given)	-19%	20	8.2	6%	/	-4%	?
CCCCN(CC)CCNC(=O)c1cn(C)c(=O)c2c1c1ccccc1n2C	3.7%&3.9%	7	-0.7	-7%	35&10	25%	-1%
CC(C)NC(=S)NC(=O)/C=C/c1ccc(F)cc1	1.1%	-18	1.6	12%	-13	-2%	4%
CC(C)NC(=O)c1ccc(COc2cc(Cl)ccc2Cl)o1	/	-9	?	-9%	-12	?	1%
CCN1CCN(S(=O)(=O)c2ccc(S(=O)(=O)N(CC)Cc3ccccc3)cc2)CC1	1.1%	-20	2.1	12%	-13	-63%[inhibitor]	17%
Cc1cc(C(=O)N2CCCC(N3CCN(c4ccccc4C)CC3)C2)nc(C)n1 (stereo not given)	-1.0%	-9	-1.6	-1%	11	?	5%
Cc1ccc(-n2c(C)cc(/C=C3/SC(=O)N(CC(=O)N4CCOCC4)C3=O)c2C)nc1	/	-14	2.5	7%	6	10%[15.4 µM]	-13%
CNC(=O)c1cc(C(=O)c2ccc(C(F)(F)F)cc2)c[nH]1	/	-10	-9.1	13%	1	?	-2%
N=c1c(S(=O)(=O)c2ccc(Cl)cc2)cc2c(=O)n3ccccc3nc2n1Cc1cccnc1	-8.0%	1	/	-10%	-2	10%	2%
COC(=O)c1ccccc1-c1ccc(/C=N/NC(=O)c2cc3ccccc3o2)o1	?	22	3.6	-2%	10	-25%	-16%
CC1(C)Cc2c(sc3nc(C4CC4)n(N)c(=O)c23)CO1	/	12	0.1	8%	-3	21%[15.4 µM]	19%
CCn1ncc(Br)c1C(=O)Nc1ccc(Cl)cn1	-2.0%	-1	-1.2	11%	28	2%	-6%
O=C(O)C1=NN(c2ccccc2)C(=O)C1	/	-5	-1.3	11%	8	26%[15.4 µM]	-22%
CCN(CC)S(=O)(=O)c1cc(C(=O)Nc2cccnc2Cl)ccc1Cl	/	-18	-1.0	/	10	-4%[15.4 µM]	20%
Cc1cc(C)cc(NC(=O)Cn2nnc3ccccc3c2=O)c1	1.4%	-6	-2.6	10%	-25	7%	8%
O=C(COC(=O)c1ccccc1SCC(=O)N1CCCC1)NC1CCS(=O)(=O)C1 (stereo not given)	-0.1%	9	/	10%	-8	-12%[15.4 µM]	/
CC(C)c1nnc(NC(=O)CCCC(=O)O)s1	-2.9%	-2	2.1	6%	15	-1%	9%
COCc1c(C(=O)OC/C(O)=C(\C#N)c2nc3ccccc3[nH]2)oc2ccccc12	/	19	19	-12%	0	3%[15.4 µM]	9%
CCOC(=O)N1CCN(CC(O)COc2cc(C)cc(C)c2)CC1 (stereo not given)	/	-1	2.1	7%	-3	5%	11%
CCN(CC)CCCN1C=C2C(=O)C(C)(OC(=O)CCc3ccccc3)C(=O)C=C2C=C1c1ccc(C#N)cc1 (stereo not given)	-17%	30	?	-6%	16	-9%	4%&7%
CCCCSc1nc(C(=O)O)cc(=O)[nH]1	-5.9%	/	-1.2	5%	5	?	?
CCCCOc1ccc(C(=O)NCC(=O)NC2CCN(Cc3ccccc3)CC2)cc1	-1.5%	-1	/	8%	13	-41%[inhibitor]	20%
Cc1nc(COC(=O)c2c(C)nn(-c3ccccc3)c2C)cs1	-0.8%	-2	0.4	3%	26	4%	-1%
CC1(C)CC[C@]2(C(=O)O[C@@H]3OC(CO)[C@@H](O)[C@H](O)[C@H]3O)CC[C@]3(C)C(=CCC4[C@@]5(C)CC[C@H](O[C@@H]6OC(C(=O)O)[C@@H](O)[C@H](O)[C@H]6O)C(C)(C)C5CC[C@]43C)[C@@H]2C1 (stereo not given in full)	-1.2%	/	/	13%	3	/	/
CC[C@]12c3[nH]c4ccc(Cl)cc4c3CCN1C(=O)[C@@H](CC(=O)NCCN1CCOCC1)C[C@@H]2C(=O)N1CCN(C(=O)C2CC2)CC1	-0.6%	/	/	7%	-15	/	/
CCCCN(CC)CCCNC(=S)Nc1ccc2nc3n(c(=O)c2c1)CCCCC3	1.6%	1	5.5	10%	8	9%[15.4 µM]	8%
CC(C)[C@H](NC(=O)c1cc2cc(Cl)ccc2n1C)C(=O)N1CCC(C(=O)O)CC1	/	-17	0.3	7%	-11	15%	7%
Cc1ccc(S(=O)(=O)N2CCOCC2)cc1NC(=O)CSc1nnc(NC2CC2)s1	-0.7%	7	/	-11%	26	1%	/
COc1ccc(NC(=O)CSc2nc(C)cs2)c([N+](=O)[O-])c1	1.9%	/	/	10%	-24	22%	/
COc1ccc(C(=O)Nc2cc3c(cc2N2CCCCC2)n(C)c(=O)n3C)cc1OC	-4.0%	-17	16	-12%	-15	17%	-1%
Cc1ccc2oc(=O)c3cc(C(=O)NCCN4CCN(C)CC4)sc3c2c1	3.9%	-3	-0.5	6%	-7	18%	11%
CCSc1nnc(NC(=O)CN2C(=O)C3CC=CCC3C2=O)s1 (stereo not given)	-4.9%	-19	-3.2	9%	6	-45%[inhibitor]	1%
COC(=O)Nc1ccc2c(c1)N(C(=O)CCCl)c1ccccc1S2	/	-14	8.3	0%	-4	?	-24%
Cc1ccc(C)c(NC(=S)N2CCN(S(=O)(=O)c3ccccc3)CC2)c1	-0.2%	14	-0.2	3%	-4	0%[15.4 µM]	11%
CCN(c1ccccc1)S(=O)(=O)c1ccc(N2CCN(c3ccc(O)cc3)CC2)nc1	0.9%	/	/	?	-7	4%[15.4 µM]	/
COc1ccc(/C=C(\NC(=O)c2ccccc2)C(=O)N/N=C/c2cccnc2)cc1	-2.5%	1	2.5	-7%	14	6%	2%
COc1cc(NC(=O)/C=C/c2ccccc2[N+](=O)[O-])cc(OC)c1	-3.1%	0	8.9	7%	-15	3%	-8%
CCOc1ccc(C(=O)Nc2sc3c(c2C(=O)OC)CC(C)(C)NC3(C)C)cc1	-16%	4	-6.1	6%	-8	1%	8%
CCN(CC)Cc1cc2[nH]c3c4ccc(Cl)cc4ncc3c2cc1OC	-12%&-11%	9	/	-2%	33	16%	-28%
COc1ccc(C(C)=O)cc1CSCC(=O)O	/	20	-0.9	/	13	-2%[15.4 µM]	8%
COc1ccc(C(=O)N/N=C(/C)c2cccc(NC(=O)C(F)(F)F)c2)cc1	-1.4%	9	5.1	-10%	24	-4%	9%
COc1cc(/C=C/C(=O)Nc2ccc3nc4n(c(=O)c3c2)CCCC4)cc(OC)c1OC	-14%	2	-0.1	6%	12	-52%[inhibitor]	50%[activator]
CCOc1ccc2nc(SCc3ccccc3C#N)sc2c1	-19%	-4	2.6	-10%	8	-33%[inhibitor]	-3%

More results.
SMILES	ClpP mod	TRPV1 potentiator	Menin MLL FP FL	gsp antagonist	TRPML1 blocker	gsp ag	Sfp inh
CCN1C(=O)c2cccc3c(NS(=O)(=O)c4ccc(NC(C)=O)cc4)ccc1c23	-1.4%	7	3.0	?	8	-26%	6%
CCCOC1CCCN(Cc2cn(C)nc2-c2ccccc2F)C1 (stereo not given)	/	6	-0.4	2%	5	-7%	18%
CCOc1ccc(C(=O)NCC(=O)Nc2ccncc2)cc1OCC	-1.0%	-4	/	15%	1	13%	/
O=C(COC(=O)c1ccc(CN2CCCC2=O)cc1)Nc1ccc(F)cc1	2.9%	1	/	0%	4	-15%	/
CCN(CC)C(=O)Cn1c(=O)c2ccccc2n2c(=S)sc(-c3cccc(C)c3)c12	-2.4%	-2	?	2%	8	-3%	?
